N370S GC mod – inhibitors or activators of N370S glucocerebrosidase for Gaucher disease. AID 2101. P04062. Potency, µM (series often up to 59.4 µM), for inactives: top-dose activity change, negative = inhibition, hits mostly inhibitors. N370S GC spleen homogenate, 4MU-glucoside fluorescence. 330,000 tested, 0.092% active;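 also: 0% = full enzyme activity and -100% = no enzyme basal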
TDP1 inh – inhibitors of human tyrosyl-DNA phosphodiesterase TDP1. recombinant TDP1, AlphaScreen DNA substrate cleavage. Potency, µM (doses to about 130 µM), for inactives: at the top dose activity change, negative = inhibition, usual class: inhibitors. 350,000 tested, 0.28% active. AID 485290; also: nearly all actives have a fitted effect of over 40% in size
Target sequence (Q9NUW8 whole entry, looked up): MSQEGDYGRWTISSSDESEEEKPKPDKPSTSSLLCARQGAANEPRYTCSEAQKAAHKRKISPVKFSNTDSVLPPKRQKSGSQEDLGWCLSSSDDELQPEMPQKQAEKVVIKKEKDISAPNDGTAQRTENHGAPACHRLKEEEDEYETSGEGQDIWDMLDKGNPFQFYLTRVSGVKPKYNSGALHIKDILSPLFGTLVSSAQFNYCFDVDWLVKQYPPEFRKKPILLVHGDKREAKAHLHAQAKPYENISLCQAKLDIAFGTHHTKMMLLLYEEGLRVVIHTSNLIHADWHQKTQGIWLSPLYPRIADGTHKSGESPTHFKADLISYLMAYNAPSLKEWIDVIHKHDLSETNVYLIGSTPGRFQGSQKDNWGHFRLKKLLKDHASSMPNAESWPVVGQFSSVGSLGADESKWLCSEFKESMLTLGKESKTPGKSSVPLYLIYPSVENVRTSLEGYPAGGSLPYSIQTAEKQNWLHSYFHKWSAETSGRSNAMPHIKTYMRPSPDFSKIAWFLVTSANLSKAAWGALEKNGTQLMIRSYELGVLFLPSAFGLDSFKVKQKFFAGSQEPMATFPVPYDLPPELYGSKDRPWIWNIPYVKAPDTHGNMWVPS
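Here, a 5' biotin and 3' phosphotyrosine-FITC DNA oligonucleotide reports Tdp1 activity: intact substrate bridges AlphaScreen beads, while cleavage leaves a 3' phosphate and drops signal. All incubations at room temperature.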
* = called active by the depositor. Calls follow the shape of the dose curve; as a rule, active = well fitted curve in the direction sought with a large enough effect; inconclusive = small, poorly fitted or top-dose-only effect, or another doubt; inactive = no such curve, though single readings can be large; an effect the other way counts as inactive or inconclusive. Unless noted, % is scaled to controls: 0 for no effect and ±100 for the full control effect; potency is read from the fitted curve at half-maximal effect. An excerpt, and most or all hits are left out here.

`COc1ccc(OC)c(C2CC(=O)Nc3n[nH]c(-c4ccccc4)c32)c1` (centres undefined) gave N370S GC mod -3% and TDP1 inh 8%.
`O=C(O)c1cc2nc(-c3ccccc3)cc(C(F)(F)F)n2n1` gave N370S GC mod -5% and TDP1 inh 7%.
`CC(C)NC[C@H](O)COc1ccc(CC(N)=O)cc1` gave N370S GC mod -4% and TDP1 inh inconclusive.
For COc1cccc(OCc2cc(C(=O)NC(C)c3cnn(C)c3C)no2)c1 (centres undefined) the results were N370S GC mod 0% and TDP1 inh 2%.
For CCC(C(=O)O/N=C(\N)c1ccc(Cl)cc1)c1ccccc1 (centres undefined) the results were N370S GC mod 7% and TDP1 inh -9%.
CC(NC(=O)C(=S)N1CCN(C)CC1)c1ccccc1 (centres undefined) was read as N370S GC mod -1% and TDP1 inh 0%.
`COc1ccc(-c2nnn(CC(=O)N(c3cccc(O)c3)C(C)C(=O)NC3CCCC3)n2)cc1OC` (centres undefined) gave N370S GC mod -7% and TDP1 inh -3%.
Screening CCCCN(C(=O)CSCC(=O)Nc1ccc(OC)cc1)c1c(N)n(CCC)c(=O)[nH]c1=O returned N370S GC mod -6%.
For NC(=O)C1CCCN(Cc2ccc3ccccc3c2)C1 (centres undefined) the results were N370S GC mod -5%.
Screening Cc1cc(N/C=C(\C#N)S(=O)(=O)c2ccc(Cl)cc2)nc(C)n1 returned N370S GC mod 6% and TDP1 inh 3%.
O=C(Nc1ccc(S(=O)(=O)Nc2nccs2)cc1)C1=NN(c2ccccc2)C(=O)CC1 was read as N370S GC mod -7% and TDP1 inh 10%.
Screening CCn1c(-c2csc3c2CCCC3)n[nH]c1=S returned N370S GC mod -11% and TDP1 inh -4%.
CCN(CC(=O)NCc1ccc(F)cc1)CC(=O)Nc1ccc(S(=O)(=O)N2CCCC2)cc1 was read as N370S GC mod -6% and TDP1 inh -3%.
For Cc1cccc(NC(=O)Cn2nc([N+](=O)[O-])c(Br)c2C)n1 the results were N370S GC mod 11% and TDP1 inh 5%.
For CCNS(=O)(=O)c1ccc(CCC(=O)N2CCOCC2)cc1 the results were N370S GC mod -9%.
`O=C(NCC(=O)N1CCCC1)c1ccc(Br)o1` gave N370S GC mod -7%.
For COc1ccc(Cn2c(=O)c3oc4ccccc4c3n(CC(=O)Nc3ccc(F)cc3F)c2=O)cc1 the results were TDP1 inh 3%.
Screening COc1ccc(C(=O)N/C(=C\c2ccco2)C(=O)NCc2cccnc2)cc1 returned N370S GC mod 0% and TDP1 inh 5%.
Screening Cc1cnc2c(c1)C(=O)c1ccccc1-2 returned N370S GC mod -1%.
Screening CCCC(=O)Nc1ccc(C(=O)NCCc2ccc(F)cc2)cc1 returned N370S GC mod -2% and TDP1 inh -1%.
Screening COc1ccc(NC2CCCCC2NS(=O)(=O)c2ccc(C)cc2)cc1 (centres undefined) returned N370S GC mod 3% and TDP1 inh 12%.
Cc1ccc(C)c(N2CCN(C(=O)C3CCCN(S(=O)(=O)c4cnc[nH]4)C3)CC2)c1 (centres undefined) was read as N370S GC mod -4% and TDP1 inh 3%.
CCOc1ccccc1NC(=S)N1CCN(c2ccc(O)cc2)CC1 was read as N370S GC mod -3%.
For CCOc1ccc(-c2nnc(N)s2)cc1 the results were N370S GC mod -8% and TDP1 inh 6%.
Screening O=C(c1ccc(Cl)c([N+](=O)[O-])c1)N1CCCc2ccccc21 returned N370S GC mod -1%.
Cc1cc(C)c(S(=O)(=O)NCc2cn3ccccc3n2)c(C)c1 was read as N370S GC mod -6% and TDP1 inh 3%.
O=C(CN1C(=O)NC(Cc2ccccc2)C1=O)NC(=O)NC1CCCCC1 (centres undefined) was read as N370S GC mod 20% and TDP1 inh 2%.
`O=C(COC(=O)/C=C/c1ccc([N+](=O)[O-])cc1)NCc1ccco1` gave N370S GC mod 1% and TDP1 inh 8%.
Screening CC1(C)CN=C(NC2CCCCC2)S1 returned N370S GC mod -26% and TDP1 inh 0%.
Screening CCCCNC(=O)C1(O)c2cc(Br)ccc2NC(=O)N1c1cccc(OC)c1 (centres undefined) returned N370S GC mod -12%.
Screening COc1ccc(C2CC(c3ccc(Cl)cc3)n3nc(N)nc3N2)cc1 (centres undefined) returned N370S GC mod 14% and TDP1 inh -1%.
`O=C1CCCC2=C1C(c1ccncc1)n1c(nc3ccccc31)N2` (centres undefined) gave N370S GC mod -8% and TDP1 inh -1%.
CCOc1cc(C2C(C(=O)c3ccco3)=C(O)C(=O)N2CC2CCCO2)ccc1O (centres undefined) was read as N370S GC mod -10% and TDP1 inh -8%.
`Cc1ccc(CN(Cc2cccnc2)C(=O)CN2C(=O)COc3ccccc32)o1` gave N370S GC mod -2% and TDP1 inh 5%.
c1ccc(NC(=NCc2ccco2)c2ccccc2)cc1 was read as N370S GC mod 1% and TDP1 inh 2%.
Cc1ccc(CCNS(=O)(=O)c2cc3c(cc2C)n(C)c(=O)c(=O)n3C)cc1 was read as N370S GC mod -1%.
For Cc1ccc(NC(=O)C2=CCN(S(=O)(=O)c3ccc(F)cc3)CC2)cc1 the results were N370S GC mod 4% and TDP1 inh 7%.
Screening C=CCn1c(SCC(=O)O)nnc1-c1ccc(C(C)(C)C)cc1 returned N370S GC mod 4% and TDP1 inh 7%.
For CCn1cc(C(=O)N2CCN(c3ccc(F)cc3)CC2)c(=O)c2cc(S(=O)(=O)N(C)C3CCCCC3)ccc21 the results were TDP1 inh 0%.
`CCc1c(C)nc(SCC(=O)Nc2nc(-c3ccc(OC)cc3)cs2)[nH]c1=O` gave N370S GC mod 14% and TDP1 inh -8%.
Screening CC(=O)Nc1ccc(S(=O)(=O)N2CCN(c3cc(C(F)(F)F)ccn3)CC2)cc1 returned N370S GC mod -14% and TDP1 inh 0%.
`Cn1c(OCc2ccco2)nc2c1c(=O)n(Cc1ccc(Cl)c(Cl)c1)c(=O)n2C` gave N370S GC mod 4% and TDP1 inh 6%.
For Cc1nc2sccn2c(=O)c1S(=O)(=O)N1CCN(c2ccc(F)cc2)CC1 the results were N370S GC mod -14% and TDP1 inh -3%.
`CCN(C#N)c1nc(NC(C)C)nc(NC(C)C)n1` gave N370S GC mod 11% and TDP1 inh 3%.
CCN(CC)C(=O)c1[nH]cnc1C(=O)N[C@@H](CC(C)C)C(=O)OC(C)(C)C was read as N370S GC mod -8% and TDP1 inh 1%.
`Cc1cc(C)cc(N=C2NC(=O)CS2)c1` gave N370S GC mod 9% and TDP1 inh 5%.
For Cc1ccc(C)c(N2CCN(C(=O)Cn3c(=O)[nH]c4ccsc4c3=O)CC2)c1 the results were TDP1 inh -2%.
Screening COc1cccc2sc(N3CCN(C(=O)c4ccc([N+](=O)[O-])o4)CC3)nc12 returned N370S GC mod -8% and TDP1 inh 5%.
Screening COc1cc(NC(=O)C2CCCN2S(=O)(=O)c2cccc3cccnc23)cc(OC)c1OC (centres undefined) returned N370S GC mod -2% and TDP1 inh 0%.
Screening CC(C)Oc1cccc(C(=O)Nc2ccc(Br)cc2F)c1 returned N370S GC mod 21% and TDP1 inh 5%.
O=C(CC1C(=O)NCCN1Cc1c(F)cccc1Cl)NC1CCCCCC1 (centres undefined) was read as N370S GC mod -2%.
COc1ccc(OCCCn2c(=O)oc3ccc(C)cc32)cc1 was read as TDP1 inh 0%.
Cc1onc(-c2ccccc2)c1C(=O)N1CCN(c2ccccn2)CC1 was read as N370S GC mod -3% and TDP1 inh 3%.
`CC(=O)Nc1ccc(S(=O)(=O)NCc2cn3ccsc3n2)cc1` gave N370S GC mod -14% and TDP1 inh 2%.
CCNC(=S)Nc1ccc(Cl)c(C(F)(F)F)c1 was read as N370S GC mod -3% and TDP1 inh -6%.
CN(CC(=O)Nc1ccccc1Br)C(=O)CNC(=O)Cc1cccc2ccccc12 was read as N370S GC mod 0% and TDP1 inh 4%.
N/C(=N\OC(=O)c1ccc2ccccc2c1)c1cccc([N+](=O)[O-])c1 was read as N370S GC mod -4% and TDP1 inh 1%.
`O=C(Nc1cnn(C23CC4CC(CC(C4)C2)C3)c1)c1cc(-c2ccccc2)on1` gave N370S GC mod -9% and TDP1 inh 7%.
NS(=O)(=O)c1ccc(NC(=S)NCC2CCCO2)cc1 (centres undefined) was read as N370S GC mod -1% and TDP1 inh 2%.
For Cc1ccc2c(c1)COc1c3ccc(C(=O)N[C@@H](C)CO)cc3nn1-2 the results were N370S GC mod 8% and TDP1 inh 2%.

Sorted by count of non-hydrogen atoms (descending): some entries from above.
O=C(Nc1ccc(S(=O)(=O)Nc2nccs2)cc1)C1=NN(c2ccccc2)C(=O)CC1 was read as N370S GC mod -7% and TDP1 inh 10%.
CCOc1cc(C2C(C(=O)c3ccco3)=C(O)C(=O)N2CC2CCCO2)ccc1O (centres undefined) was read as N370S GC mod -10% and TDP1 inh -8%.
`Cn1c(OCc2ccco2)nc2c1c(=O)n(Cc1ccc(Cl)c(Cl)c1)c(=O)n2C` gave N370S GC mod 4% and TDP1 inh 6%.
Cc1ccc(CCNS(=O)(=O)c2cc3c(cc2C)n(C)c(=O)c(=O)n3C)cc1 was read as N370S GC mod -1%.
O=C(CN1C(=O)NC(Cc2ccccc2)C1=O)NC(=O)NC1CCCCC1 (centres undefined) was read as N370S GC mod 20% and TDP1 inh 2%.
Screening COc1ccc(NC2CCCCC2NS(=O)(=O)c2ccc(C)cc2)cc1 (centres undefined) returned N370S GC mod 3% and TDP1 inh 12%.
`O=C(COC(=O)/C=C/c1ccc([N+](=O)[O-])cc1)NCc1ccco1` gave N370S GC mod 1% and TDP1 inh 8%.
COc1ccc(OCCCn2c(=O)oc3ccc(C)cc32)cc1 was read as TDP1 inh 0%.
For Cc1cccc(NC(=O)Cn2nc([N+](=O)[O-])c(Br)c2C)n1 the results were N370S GC mod 11% and TDP1 inh 5%.
CC(NC(=O)C(=S)N1CCN(C)CC1)c1ccccc1 (centres undefined) was read as N370S GC mod -1% and TDP1 inh 0%.
Screening CCn1c(-c2csc3c2CCCC3)n[nH]c1=S returned N370S GC mod -11% and TDP1 inh -4%.
Screening Cc1cnc2c(c1)C(=O)c1ccccc1-2 returned N370S GC mod -1%.

Going on with the list.
COc1ccc(C2CC(=O)C3=C(C2)NC(C)=C(C#N)C3c2ccc(N(C)C)cc2)cc1 (centres undefined) was read as N370S GC mod 3% and TDP1 inh -4%.
For COC(=O)c1ccc(C2CC(=O)NC3=C2C(=O)CCC3)cc1 (centres undefined) the results were N370S GC mod -24% and TDP1 inh 5%.
For COC(=O)c1ccc(NC(=S)NNC(=O)c2ccccc2)cc1 the results were N370S GC mod 11% and TDP1 inh 7%.
Screening O=C(CSC(=S)N1CCOCC1)Nc1ccc(S(=O)(=O)Nc2ncccn2)cc1 returned N370S GC mod 3% and TDP1 inh -2%.
Screening Cc1cc(C)c(C)c(S(=O)(=O)NC(C(=O)O)C(C)C)c1C (centres undefined) returned N370S GC mod 6% and TDP1 inh 4%.
`COc1ccc(C(=O)O)cc1S(=O)(=O)Nc1cc(Cl)ccc1N1CCOCC1` gave TDP1 inh 5%.
For C=CCn1c(SCc2ccc3c(c2)OCO3)nc2scc(-c3ccco3)c2c1=O the results were N370S GC mod 1% and TDP1 inh -2%.
O=C(CSCc1ccccc1)NNc1c(F)c(F)cc(F)c1F was read as N370S GC mod -10%.
CNC(=O)c1cc(S(=O)(=O)N2CC(C)OC(C)C2)ccc1N1CCCCC1 (centres undefined) was read as N370S GC mod -4% and TDP1 inh 2%.
Screening O=C(c1cnn2c(C(F)(F)F)cc(-c3ccccc3)nc12)N1CCCCC1c1cccnc1 (centres undefined) returned N370S GC mod 8% and TDP1 inh 0%.
Screening O=C(COc1ccc(Cl)cc1)Nc1nc(-c2cccs2)cs1 returned N370S GC mod -4% and TDP1 inh 0%.
For Cc1ccc(-c2cc(C(=O)Nc3cc(C)on3)c3ccccc3n2)c(C)c1 the results were N370S GC mod 6% and TDP1 inh 3%.
For Cc1ccc(N2C(=O)C3C4C=CC(CC4)C3C2=O)c([N+](=O)[O-])c1 (centres undefined) the results were N370S GC mod -7%.
Screening COc1cccc(-c2cc(C(F)(F)F)n3ncc(C(=O)NCC4CCCO4)c3n2)c1 (centres undefined) returned N370S GC mod 0% and TDP1 inh -4%.
`Cc1ccc(Cl)cc1N1CCN(C(=O)CCS(=O)(=O)c2ccc3c(c2)NC(=O)CO3)CC1` gave N370S GC mod -21% and TDP1 inh 2%.
For Cc1ccsc1CN(C)Cc1nc(C2CC2)no1 the results were N370S GC mod 5% and TDP1 inh -1%.
Screening COc1ccc(CNC(=O)C(C)N(C)Cc2cccc(F)c2)cc1 (centres undefined) returned N370S GC mod 2%.
Cc1ccc(NC(=O)c2oc(=O)c3ccccc3c2-c2ccccc2)c(C)c1 was read as N370S GC mod 1% and TDP1 inh 0%.
NC1=NC(=O)/C(=C\C=C\c2ccccc2)S1 was read as N370S GC mod -2% and TDP1 inh 0%.
For Cc1ccc(S(=O)(=O)N2CC=C(C(=O)NCc3ccccc3)CC2)cc1 the results were N370S GC mod 5% and TDP1 inh 1%.
`Cc1ccc(C)c(OCC(=O)NNC(=O)c2ccc(NC(=O)C3CC3)cc2)c1` gave N370S GC mod -3% and TDP1 inh 1%.
CO/N=C(\CS(=O)(=O)Cc1ccc(OC)cc1)c1ccc(Cl)cc1 was read as N370S GC mod 9% and TDP1 inh -5%.
Screening CC(C)N1CCN(S(=O)(=O)c2ccc3ccccc3c2)CC1 returned N370S GC mod -21%.
`Cn1c(SCc2cccc(Br)c2)nc2ccccc2c1=O` gave N370S GC mod 0% and TDP1 inh -13%.
Cc1ccc(CSCCNC(=O)c2ccc(C)cc2)cc1 was read as N370S GC mod inconclusive and TDP1 inh 4%.

Screens deposited in PubChem BioAssay by National Center for Advancing Translational Sciences (NCATS).
